PABP FP inh – blocks human PABP binding to poly(A) RNA | inhibition, % at 35 µM | P11940 | 1% of 290,000 active | fluorescence polarization;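 active = 50% or more with normal probe brightness, or confirmed in later tests; inconclusive = above 50% with abnormal brightness, or retests that disagree; inactive = below 50% or failed in later tests; about a fifth of its hits are not listed in these tables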;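 also: calls also rest on retests at 20 µM and on dose response follow-up; controls were probe without protein and protein plus probe with vehicle; some compounds called inactive have numbers as strong as hits; many hits fall short of the cut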
Target sequence (P11940 whole entry, looked up): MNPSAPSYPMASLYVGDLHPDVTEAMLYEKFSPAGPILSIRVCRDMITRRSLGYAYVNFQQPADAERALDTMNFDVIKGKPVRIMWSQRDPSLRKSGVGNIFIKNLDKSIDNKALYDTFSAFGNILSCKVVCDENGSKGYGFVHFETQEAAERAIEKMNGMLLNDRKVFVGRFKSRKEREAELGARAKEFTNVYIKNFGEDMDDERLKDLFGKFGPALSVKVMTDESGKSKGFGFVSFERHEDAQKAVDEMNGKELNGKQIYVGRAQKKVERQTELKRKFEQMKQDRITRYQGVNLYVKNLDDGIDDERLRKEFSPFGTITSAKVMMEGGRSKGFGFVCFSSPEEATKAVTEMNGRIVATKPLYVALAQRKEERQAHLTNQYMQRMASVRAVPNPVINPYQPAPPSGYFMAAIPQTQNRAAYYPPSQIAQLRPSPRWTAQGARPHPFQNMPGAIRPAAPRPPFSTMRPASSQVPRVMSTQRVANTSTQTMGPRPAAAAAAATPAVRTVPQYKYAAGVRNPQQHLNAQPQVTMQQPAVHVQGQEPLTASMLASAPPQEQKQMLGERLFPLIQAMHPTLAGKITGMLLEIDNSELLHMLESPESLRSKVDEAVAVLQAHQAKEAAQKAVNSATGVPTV
eIF4H inh – inhibitors of RNA binding by human eIF4H; eIF4H fluorescence polarization binding assay; 0.94% of 290,000 active; Q15056; AID 2012; inhibition, % at 35 µM;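 active = 50% or more with normal probe brightness, or confirmed in later tests; inconclusive = above 50% with abnormal brightness, or retests that disagree; inactive = below 50% or failed in later tests; about a fifth of its hits are not listed in these tables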;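 also: calls also rest on retests at 20 µM and on dose response follow-up; 0% = protein and probe with vehicle and 100% = probe without protein; strong numbers were not always called active; many hits fall short of the cut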
CSC inhib – cancer stem cell inhibition | 1.1% of 300,000 active | inhibition, % at 7.5 µM | AID 2717 | cancer stem cell-like cells viability, luminescence;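 active = mean at 75% or more and at least half the replicates too; inconclusive = mean and replicates disagree; tested in HMLE shEcad cells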;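 also: 0% = median of negative and 100% = median of positive control wells; the first replicate is given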
Yeast UUG start – yeast start codon fidelity modulation | S. cerevisiae UUG-firefly luciferase reporter, luminescence/redox ratio | activity score, % at 18.7 µM | 0.13% of 350,000 active;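 active = replicate mean at a twofold rise or more, about +100% in these data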;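 also: firefly luciferase made from a UUG start codon reports start codon fidelity; reporter light over untreated wells divided by growth signal over untreated wells; some hits fall short of that in this replicate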
Env fusion inh – blocks HIV Env-driven cell-cell fusion; 1.1% of 360,000 active; AID 651610; HeLa-JRFL Env/CEM21 cell fusion, luciferase; inhibition, % at 12.3 µM;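 active = mean replicate inhibition score of at least 50 and every replicate individually at or above 50; inconclusive = only one of the two criteria met; inactive = mean below 50 and not all replicates reaching 50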;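 also: 0% = plate neutral controls and 100% = maraviroc near 300 nM; one replicate is shown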
MT1-MMP act inh – inhibitors of human MT1-MMP activation; GFP/RFP ratio change, % at 20 µM; 0.061% of 360,000 active; HT1080 RFP-PRO-GFP cells, GFP/RFP ratio fluorescence, overnight; percent of plate control window, DMSO zero; P50281;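 active = GFP/RFP ratio change of at least 30% with cell ATP level not reduced by more than half and red fluorescence within 50% of control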; also: strong numbers were not always called active
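Assay system: HT1080 RFP-PRO-GFP cells | Dosing: 20 µM single dose, 1% DMSO | Incubation: Cells overnight before dosing, compound overnight, 37 °C, 5% CO2 | Evaluation: GFP/RFP fluorescence ratio | Control set: DMSO-only wells and HT1080 RFP-L50D-GFP cell wells as references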
Rce1 inhib – inhibitors of yeast Ras-converting enzyme; yeast membranes, quenched prenylated peptide cleavage fluorescence; calls only; 0.27% of 290,000 active;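 active = fall in fluorescence gain of 50% or more versus controls, with final raw signal at or below 3038400; inconclusive = same 50% fall but final raw signal above 3038400; inactive = fall in fluorescence gain under 50%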;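 also: plate controls were neutral control wells for no effect and wells lacking membranes for full effect; tested at 10 µM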
Target sequence (Q03530 whole entry, looked up): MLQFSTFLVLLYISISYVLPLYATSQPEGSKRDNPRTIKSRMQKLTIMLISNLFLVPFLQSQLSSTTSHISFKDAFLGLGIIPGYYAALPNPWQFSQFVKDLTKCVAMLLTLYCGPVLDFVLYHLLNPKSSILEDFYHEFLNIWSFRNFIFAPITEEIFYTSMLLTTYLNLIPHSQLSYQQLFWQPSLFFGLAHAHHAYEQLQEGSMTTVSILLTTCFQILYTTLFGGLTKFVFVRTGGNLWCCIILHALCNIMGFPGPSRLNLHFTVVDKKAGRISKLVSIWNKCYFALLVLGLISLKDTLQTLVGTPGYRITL
MT1-MMP act inh RFP – further read-out of MT1-MMP act inh, marked with its call; RFP signal change, %; measured here: RFP expression control read;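 0 = vehicle wells; hits needed this value within 50% of zero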
* marks the source's active call; other numbers are inactive results; i = inactive; ? = inconclusive; . = no result given; & = joins results of further samples.

Screens in order: PABP FP inh, eIF4H inh, CSC inhib, Yeast UUG start, Env fusion inh, MT1-MMP act inh, MT1-MMP act inh RFP, Rce1 inhib
1. CC(C)(C)OC(=O)N1CCCC1C(=O)O (stereo unspecified)
  -9, -10, 0, -18, -77, -5, 2, .
2. CC(=O)NCCCc1nc2ccccc2n1Cc1ccccc1F
  15, -8, 7, 174*, -4, 2, -1, i
3. COc1ccc(NC(=O)c2ccc(-n3cccn3)c([N+](=O)[O-])c2)cc1
  -6, -9, -12, ., -8, 5, -3, i
4. CNc1ncnc2c1ncn2[C@H]1CN(CCOC)C[C@@H](CO)O1
  ., ., ., -13, 11, 2, 4, .
5. Cc1ccc(N(C)C(=O)CCS(=O)(=O)c2ccc3c(c2)oc(=O)n3C)cc1
  14, 10, 4, -10, -7, 1, 0, i
6. COC(=O)Nc1snnc1C
  1, -8, -15, -3, ., 8, 5, i
7. CC(=O)Nc1scc(C)c1-c1nc2ccccc2s1
  -1, -3, 2, ., -8, -2, 1, i
8. CCC(=O)c1cc2c(cc1NC(=O)c1cccs1)OCCO2
  -15, -1, -20, -26, -10, -6, 0, i
9. CSc1ccc(C#N)cc1NC(=O)c1ccc(Cl)cc1Cl
  0, -9, 4, ., ., -2, 0, i
10. O=C(/C=C/c1cccs1)Nc1nccs1
  -9, -6, 6, ., -29, 0, 0, i
11. O=[N+]([O-])c1ccc2[nH]c(O)c(N=NC3CCS(=O)(=O)C3)c2c1 (stereo unspecified)
  2, -1, -13, -16, 7, 2, -2, i
12. O=C(O)c1ccccc1OCc1ccccc1Cl
  10, -10, -17, -10, 0, 7, 9, i
13. O=C(NC1CCCCC1)c1cccc(S(=O)(=O)N2CCOCC2)c1
  -8, -10, -7, -14, ., 2, 8, i
14. COc1ccccc1Cc1noc(COc2cccc(C)c2C)n1
  -7, -3, 18, -16, -4, 2, 3, i
15. Cc1nc2nc(N)nn2c(C)c1C/C=C/c1ccccc1
  -17, 5, 0, ., 17, 3, 4, i
16. COc1cc(NC(=O)[C@@H]2CCCN2S(=O)(=O)c2cccc3cccnc23)cc(OC)c1OC
  ., ., 4, -15, -10, 1, 4, .
17. CC(C)(C)c1cc[n+](/C(C(=S)Nc2ccccc2F)=C(/[O-])c2ccc3c(c2)OCCO3)cc1
  8, 5, ., ., -5, 2, 3, i
18. COc1ccc(C2=Nn3c(C)nnc3SC2)cc1
  3, -9, -15, -14, -20, 5, 5, i
19. Cc1cc(Cl)ccc1Nc1ncccc1C(N)=O
  -10, -2, 24, ., -59, 1, 1, i
20. COC(=O)c1ccc(CSc2nc3c(c(=O)n2-c2ccc(Br)cc2)SCC3)o1
  -2, -4, -6, ., ., 0, -6, i
21. O=C1CN(C(=O)c2ccc3nc(Cc4cccc(Cl)c4)oc3c2)CCN1
  -4, 5, -5, -2, -4, 4, 4, i
22. O=C(c1ccc(CS(=O)c2ccc(F)cc2)o1)N1CCN(C2CCCCC2)CC1 (stereo unspecified)
  4, -4, -10, 1, 2, 1, 5, i
23. CCN(c1ccccc1)S(=O)(=O)c1ccc(Cl)c(C(=O)NCCc2ccc(OC)cc2)c1
  -5, -16, -2, -7, -8, -3, -2, i
24. COc1cc(C(=O)Nc2ccc(S(=O)(=O)Nc3nccc(C)n3)cc2)cc(OC)c1OC
  2, 5, ., 4, ., 19, 1, i
25. COc1ccc(C(C)(C)C)cc1NS(=O)(=O)c1cccc2cccnc12
  -2, 0, 7, 0, 14, -2, -6, i
26. O=C(C1CCN(C2CCN(Cc3ccc4c(c3)CCO4)CC2)CC1)N1CCCC1
  -1, -7, 0, ., 7, 0, 1, i
27. COc1cc(C)ccc1OCCOCCOc1cccc2ccc(C)nc12
  13, -2, 6, -4, 18, -4, -3, i
28. CCOc1ccc(C(=O)NCC(=O)NCC(c2ccco2)N2CCCCC2)cc1OCC (stereo unspecified)
  ., ., -5, -11, 0, 0, 3, i
29. COc1ccc(NC(=O)C(=O)N2N=C(C(C)C)CC2(O)C(F)(F)F)cc1 (stereo unspecified)
  1, -8, ., -9, 13, 9, -1, i
30. C#CCN(Cc1ccco1)C(=O)c1ccc(OC2CCN(Cc3ccccn3)CC2)cc1
  2, -3, -1, -7, -6, -1, -5, i

Structures from the list above that have an aryl methoxy group (9):
Screens in order: PABP FP inh, eIF4H inh, CSC inhib, Yeast UUG start, Env fusion inh, MT1-MMP act inh, MT1-MMP act inh RFP, Rce1 inhib
3. COc1ccc(NC(=O)c2ccc(-n3cccn3)c([N+](=O)[O-])c2)cc1
  -6, -9, -12, ., -8, 5, -3, i
14. COc1ccccc1Cc1noc(COc2cccc(C)c2C)n1
  -7, -3, 18, -16, -4, 2, 3, i
16. COc1cc(NC(=O)[C@@H]2CCCN2S(=O)(=O)c2cccc3cccnc23)cc(OC)c1OC
  ., ., 4, -15, -10, 1, 4, .
18. COc1ccc(C2=Nn3c(C)nnc3SC2)cc1
  3, -9, -15, -14, -20, 5, 5, i
23. CCN(c1ccccc1)S(=O)(=O)c1ccc(Cl)c(C(=O)NCCc2ccc(OC)cc2)c1
  -5, -16, -2, -7, -8, -3, -2, i
24. COc1cc(C(=O)Nc2ccc(S(=O)(=O)Nc3nccc(C)n3)cc2)cc(OC)c1OC
  2, 5, ., 4, ., 19, 1, i
25. COc1ccc(C(C)(C)C)cc1NS(=O)(=O)c1cccc2cccnc12
  -2, 0, 7, 0, 14, -2, -6, i
27. COc1cc(C)ccc1OCCOCCOc1cccc2ccc(C)nc12
  13, -2, 6, -4, 18, -4, -3, i
29. COc1ccc(NC(=O)C(=O)N2N=C(C(C)C)CC2(O)C(F)(F)F)cc1 (stereo unspecified)
  1, -8, ., -9, 13, 9, -1, i

Continuation.
Screens in order: PABP FP inh, eIF4H inh, CSC inhib, Yeast UUG start, Env fusion inh, MT1-MMP act inh, MT1-MMP act inh RFP, Rce1 inhib
31. COCCNC(=O)c1ccc2c(c1)CCN2S(C)(=O)=O
  1, 1, -13, ., 1, 1, 7, i
32. O=S(=O)(c1cccs1)N1CCCc2ccccc21
  -1, -2, -19, -19, -5, -1, 1, i
33. CCCC(=O)NC(c1ccco1)c1c(O)ccc2ccccc12 (stereo unspecified)
  6, 0, ., ., 15, -3, -4, i
34. COc1ccc(-n2cc(-c3ccc(Br)cc3)[nH]c2=S)cc1
  3, -1, -13, -5, -13, 9, 7, i
35. COc1ccccc1CNC(=O)CSCc1cnn(-c2ccccc2)c1-n1cccc1
  -5, 22, -1, 7, -2, 0, -7, i
36. Cn1nccc1C(=O)NC1CCCc2c1cnn2-c1cc(F)cc(F)c1 (stereo unspecified)
  5, 3, -9, -11, 2, 2, -25, i
37. CCOCCCNC(=O)c1cn2c3c(ccc(Cl)c3c1=O)OC(C)C2 (stereo unspecified)
  -1, -6, ., -10, 15, -5, -9, i
38. CCN(CC)S(=O)(=O)c1cccc(C(=O)NCC2(N3CCOCC3)CCCCC2)c1
  ., ., ., -18, -7, -1, -4, .
39. CC(C)Oc1ccc(Cl)cc1Nc1nc(NCCO)nc(N2CCCC2)n1
  ., ., 55, 11, 7, 6, -3, i
40. O=[N+]([O-])c1cccnc1Sc1ccccc1Cl
  ., ., 2, ., 4, 2, -4, i
41. CCCCN1C(=O)CC(N2CCOCC2)C1=O (stereo unspecified)
  14, 1, 10, -19, -38, -5, 0, i
42. CC(C)(C)c1ccc(-c2nnc(SCC(=O)Nc3sc4c(c3C#N)CCCC4)o2)cc1
  13, 6, 42, ., -9, -1, -3, i
43. O=C(C(Cc1ccccc1)n1cccc1)N1CCN(c2cccc(Cl)c2)CC1 (stereo unspecified)
  -6, -5, 19, 1, -6, -5, -13, i
44. CC(C)(CO)Cc1cc(C(C)(C)C)c(O)c(C(C)(C)C)c1
  ., ., 13, -2, 8, -1, -12, .
45. O=C(Cn1cc(C(F)(F)F)ccc1=O)Nc1ccc(N2CCOCC2)cc1
  20, -2, -3, -3, 20, -2, 1, i
46. CC1(C)CC2CC(C)(CN2C(=O)COC(=O)c2cccnc2Cl)C1 (stereo unspecified)
  ., ., -19, 4, 1, -1, 2, .
47. C=CCn1c(COc2ccc(F)cc2)nnc1SCC(=O)NC(=O)NCc1ccco1
  40, 44, -1, -12, ., 2, 2, i
48. Cc1ccc(Nc2c(-c3ccc(N4CCOCC4)cc3)nc3cnccn23)cc1
  3, 6, 4, -17, 4, -3, -3, i
49. CC(C)N(Cc1ccccc1)C(=O)COC(=O)c1c(F)cccc1F
  ., ., -16, 8, 4, -2, 2, .
50. COc1cc(NC(=O)C/C(C)=N/NC(=O)C(=O)NCCO)c(OC)cc1Cl
  5, -6, -24, ., 7, 5, 3, i
51. Cc1ccc(S(=O)(=O)NCc2ccco2)cc1C
  -10, 0, 1, -8, ., -1, 2, i
52. Fc1ccc(OCc2nnc(-c3ccccc3Br)o2)c(Cl)c1
  0, 7, 17, -13, -73, 3, 4, i
53. CCOC(=O)c1c(N)ssc1=S
  1&-2, -4&2, -5, -25, ., -1, 0, i
54. O=C(NNC1=NC2(CCCC2)Cc2ccccc21)c1cccnc1
  7, -5, -10, 0, -4, -2, -2, i
55. Cc1ccc(S(=O)(=O)Nc2c(C)[nH]c(=O)[nH]c2=O)cc1C
  -2, -3, 0, ., 5, 1, 0, i
56. CC(C)N(Cc1nc(-c2ccc(Cl)cc2)no1)C(=O)c1cccs1
  4, 1, 3, -4, ?, -2, -9, i
57. O=C1C2C3C=CC([C@@H]2C(=O)N1c1nccs1)C31CC1 (stereo partly specified)
  0, -1, -17, ., ., 3, 9, i
58. Cc1cc(C)cc(C(=O)N2CCN(c3ccccn3)CC2)c1
  -1, 6, -13, -14, 4, -4, 1, i
59. O=C1C2CC=CCC2C(=O)N1Cc1nnc(-c2ccccc2Br)o1 (stereo unspecified)
  3, 2, 0, 1, -14, -6, 0, i
60. COc1cc2ccc(=O)oc2c(O[C@@H]2O[C@H](CO)[C@@H](O)[C@H](O)[C@H]2O)c1O
  13, 14, -12&-9, 5&-14, 0&5, 1&0, 4&2, i

From entry 44 up to 45, as listed above:
Screens in order: PABP FP inh, eIF4H inh, CSC inhib, Yeast UUG start, Env fusion inh, MT1-MMP act inh, MT1-MMP act inh RFP, Rce1 inhib
44. CC(C)(CO)Cc1cc(C(C)(C)C)c(O)c(C(C)(C)C)c1
  ., ., 13, -2, 8, -1, -12, .
45. O=C(Cn1cc(C(F)(F)F)ccc1=O)Nc1ccc(N2CCOCC2)cc1
  20, -2, -3, -3, 20, -2, 1, i
